Bead autofluor = counter-screen for toxin protease inhibitors: compound fluorescence. compound autofluorescence counterscreen, microsphere flow cytometry; stronger effect = higher value. fluorescence intensity (no concentration beside the values). 360,000 compounds, 3.1% hits;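 active means at least 3 SD above the mean of all compounds, about 16000 in these data; inconclusive means too few beads counted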;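 further: 100 nL of 1 mM stock went into each well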
Sa ugtP lethal = growth inhibition of ugtP-null S. aureus, primary screen, RN4220 ugtP deletion, OD600. 16 h; some inactives read as strong as hits. growth inhibition, % (no concentration beside the values). 330,000 compounds, 0.54% hits;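 active means z-score under -3 and OD600 up to 0.15 on both plates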;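 further: plate controls were untreated wells for no effect and antibiotic for full effect; wells of about 80 µL received 100 nL stock; the first replicate is given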
BJeLR lethal = MLPCN primary cell-based screen for lethality selective to Ras in HRASV12 cells; BJeLR (HRASV12) viability, CellTiter-Glo ATP luminescence, 48 h; reference of the scale not given here; inhibition, % (test concentration not listed); 300,000 compounds, 0.17% hits; AID 1554, 2009;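 active means replicate mean above 50%; inconclusive means above 50% but judged a plate artefact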;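 further: 50 nL library stock added to about 25 µL; numbers are from one replicate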
PrP UTR inh = inhibition of PrP 5' UTR reporter expression. AID 488862, 2010. 340,000 compounds, 0.35% hits. inhibition, % (concentration not given with the values). cell-based PrP 5' UTR mRNA reporter, plate reader;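 active means every replicate at 50% or more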;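 further: 0 = median of the neutral control wells; tested in H4 reporter cells; numbers are from one replicate; inactives centre near -14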
Sa RN4220 lethal = growth inhibition of S. aureus RN4220, primary screen, OD600 | inhibition, % (test concentration not listed) | 330,000 compounds, 0.33% hits | 16 h;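 active means z-score of -3 or lower and OD600 up to 0.18 on both plates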;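 further: plate controls were untreated cells for no effect and reference antibiotic for full effect; stock transfer was 100 nL into about 80 µL; one replicate is shown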
Mtb hypoxia inh = PubChem AID 1159583. M. tuberculosis hypoxia-regulated fluorescent reporter, fluorescence. fluorescence inhibition, % (no concentration beside the values). 300,000 compounds, 0.1% hits;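 active means 35 to 45% if threefold the growth effect, above 45% if 1.5-fold the growth effect; inactive means the rest, general growth blockers included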;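 further: wells of about 50 µL received 100 nL stock; 0% = vehicle wells and 100% = reference inhibitor wells; whole bacteria with a GFP reporter of the hypoxia response; strong numbers were not always called active; many hits fall short of the cut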
Mtb hypoxia inh growth = also measured in Mtb hypoxia inh; calls as there; growth inhibition, %; measured here: M. tuberculosis growth (absorbance);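 0% = vehicle and 100% = reference antibiotic; read after six days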
* hit, by the source's call; ? = inconclusive; . = no result given; & = joins results of further samples.

1. O=C(/C=C\c1ccccc1)Nc1ccc(NC(=O)c2ccco2)cc1
2. O=C(O)CCCN1C(=O)C(=O)/C(=C(/O)c2ccccc2)C1/C=C/c1ccccc1 (configuration not stated)
3. CCN1c2ccccc2-c2nc3ccccc3n2C1c1cccs1 (configuration not stated)
4. COc1ccccc1Nc1nc(N)nc(CN2CCN(Cc3ccc4c(c3)OCO4)CC2)n1
5. COc1cc(O)c(CCC(=O)c2cc(OC)c(OC)c(OC)c2)c(OC)c1
6. O=C(Cc1ccc(Br)cc1)NC1CCN(Cc2ccccc2)CC1
7. CC(C(=O)OCC(=O)c1ccc([N+](=O)[O-])cc1)N1C(=O)C2C3CCC(C3)C2C1=O (configuration not stated)
8. O=CN1CCN(C(=S)Nc2ccc(OC(F)F)cc2)CC1

assay / compound,1,2,3,4,5,6,7,8
Bead autofluor,3980,4306,2283,4371,2540,6199,4495,4831
Sa ugtP lethal,.,3,10,-1,-5,10,13,-1
BJeLR lethal,-1,-7,2,0,1,2,7,3
PrP UTR inh,-17,-31,-13,-22,-25,-12,-34,-7
Sa RN4220 lethal,.,4.6,-12,1.1,2.7,0.3,10,1.3
Mtb hypoxia inh,.,-2,7,5,12,16,-4,7
Mtb hypoxia inh growth,.,-5,3,4,4,-1,-1,7

9. CC1CCN(CC(=O)Nc2ccccc2C(=O)c2ccccc2)CC1
10. C=CCC(CC(=O)N(CCO)Cc1ccccc1)C(=O)NCCOC(=O)C(CC=C)CC(=O)OC(C)(C)C (configuration not stated)
11. CCn1nnc(NC(=O)COc2ccc(C3CCCCC3)cc2)n1
12. CC(NC(=O)Cc1cccs1)C(c1cccs1)N1CCOCC1 (configuration not stated)
13. O=C(/C=C/c1ccccc1Br)c1ccc2c(c1)OCO2
14. COc1ccccc1OCCCc1c(C)n[nH]c1C
15. CNc1ccc(C(=O)OCC(=O)NC(=O)NC2CCCCC2)cc1[N+](=O)[O-]
16. CC1(C)CC(=O)C=C(Nc2ccc(O)c(C(=O)O)c2)C1

assay / compound,9,10,11,12,13,14,15,16
Bead autofluor,2754,.,10985,5698,6011,10545,3386,3339
Sa ugtP lethal,11,5&0,4,7,8,-2,0,7
BJeLR lethal,-9,.,-4,10,6,1,.,-1
PrP UTR inh,-10,.,-20,-21,-16,-9,-14,0
Sa RN4220 lethal,6.1,7.2&1.0,4.6,2.2,6.8,5.2,0.4,2.2
Mtb hypoxia inh,0,6&2,5,6,-6,7,12,-2
Mtb hypoxia inh growth,-7,3&16,9,7,7,9,1,-2

17. Cc1cccc(-c2nc(CN3CCCC(C(=O)NC4CCCC4)C3)c(C)o2)c1 (configuration not stated)
18. CCN1CCN(Cc2nc3c(c(=O)n(C)c(=O)n3C)n2C(C)C(C)=O)CC1 (configuration not stated)
19. O=C(NCc1ccc(Cl)cc1)c1cc(=O)nc2sc(-c3ccccc3)nn12
20. CC1CCCC(C)N1C(=O)COC(=O)c1cc(=O)[nH]c2ccccc12 (configuration not stated)
21. CCCc1cc(=O)oc2c(C)c(OCC(=O)Nc3cccnc3)ccc12
22. CCCC(C)NC(=O)c1ccc(-c2ccccc2)cc1 (configuration not stated)
23. COc1ccccc1Oc1cc(F)nc(N)n1
24. COc1ccc(C2NC(=O)NC(C)=C2C(=O)Nc2cc(C)ccc2C)cc1OC (configuration not stated)

assay / compound,17,18,19,20,21,22,23,24
Bead autofluor,?,4476,8178,3794,4716,.,17544*,3161
Sa ugtP lethal,5,-3,8,2,10,7,1,1
BJeLR lethal,3,-6,9,.,1,6,0,-4
PrP UTR inh,-11,-8,-7,-5,-5,.,-26,-15
Sa RN4220 lethal,3.1,2.0,7.6,2.1,-2.9,3.7,5.7,-5.5
Mtb hypoxia inh,5,4,-8,13,4,13,7,15
Mtb hypoxia inh growth,3,1,-4,11,4,6,7,5

25. FC(F)Oc1ccc(C=NNC(=S)Nc2cc(C(F)(F)F)ccc2Cl)cc1
26. CC(C)(C)NC(=O)C1CCN(S(=O)(=O)c2cccc3nsnc23)CC1
27. CC1=C(CC[C@@H](C)CO)OC2CC3C4CCC5CC(O)CCC5(C)C4CC(=O)C3(C)C12 (some centres not stated)
28. CCC(C)n1c(-c2cccc(S(=O)(=O)N3CCOCC3)c2)n[nH]c1=S (configuration not stated)
29. COc1ccc(OC(C)C(=O)N2CCC(C)CC2)cc1 (configuration not stated)
30. O=C(Cc1ccc(Cl)cc1)Nc1ccc(NC(=O)c2cccs2)cc1
31. COc1ccc(OC)c(-n2c(Cn3c(-c4ccccn4)nc4ccccc43)n[nH]c2=S)c1
32. CN(C)S(=O)(=O)N1CCC(Oc2ccc(C(=O)NCC(C)(C)CO)cc2)CC1

assay / compound,25,26,27,28,29,30,31,32
Bead autofluor,.,4084,4613,6007,?,2246,2593,4310
Sa ugtP lethal,12,7,5,6,2,7,2,-1
BJeLR lethal,.,0,-2,.,-4,-7,7,-3
PrP UTR inh,.,-16,-29,-15,-15,-6,-15,-8
Sa RN4220 lethal,-0.4,0.6,-4.2,2.4,2.2,5.1,7.6,3.0
Mtb hypoxia inh,11,4,.,1,18,16,6,-4
Mtb hypoxia inh growth,10,-5,.,5,12,8,-10,-2

33. Cc1nc2ccccc2c(=O)n1/N=C/c1ccc(O)cc1O
34. Cc1ccc(CNc2c(C=O)c(=O)[nH]c3ccccc23)cc1
35. Cc1cccc(C)c1OCc1cc(C(=O)NCc2cn(C)nc2C)no1
36. O=C(c1cn[nH]c1)c1cc(F)ccc1O
37. CC(C)(C)c1cc(NC(=O)c2ccco2)n(-c2ccccc2)n1
38. COCCCNC(=O)c1c(N)n(-c2ccc3c(c2)OCO3)c2nc3ccccc3nc12
39. Nc1cccc(Oc2ccc([N+](=O)[O-])cc2)c1
40. Cc1cc(C(=O)CCC(=O)N2CCN(S(=O)(=O)c3ccccc3)CC2)c(C)s1

assay / compound,33,34,35,36,37,38,39,40
Bead autofluor,4397,3834,5459,2362,4087,4028,4464,?
Sa ugtP lethal,.,6,10,-4,-5,1,8,0
BJeLR lethal,6,-1,2,-4,-2,0,-6,-7
PrP UTR inh,0,-27,-12,-3,-7,-52,-27,-13
Sa RN4220 lethal,.,4.6,2.6,6.5,-1.9,1.6,-2.8,3.3
Mtb hypoxia inh,.,13,2,4,-3,8,2,6
Mtb hypoxia inh growth,.,-3,8,1,6,4,8,3

Four of the compounds above, field by field.
40. Cc1cc(C(=O)CCC(=O)N2CCN(S(=O)(=O)c3ccccc3)CC2)c(C)s1
  Bead autofluor: ?; Sa ugtP lethal: 0; BJeLR lethal: -7; PrP UTR inh: -13; Sa RN4220 lethal: 3.3; Mtb hypoxia inh: 6; Mtb hypoxia inh growth: 3
35. Cc1cccc(C)c1OCc1cc(C(=O)NCc2cn(C)nc2C)no1
  Bead autofluor: 5459; Sa ugtP lethal: 10; BJeLR lethal: 2; PrP UTR inh: -12; Sa RN4220 lethal: 2.6; Mtb hypoxia inh: 2; Mtb hypoxia inh growth: 8
36. O=C(c1cn[nH]c1)c1cc(F)ccc1O
  Bead autofluor: 2362; Sa ugtP lethal: -4; BJeLR lethal: -4; PrP UTR inh: -3; Sa RN4220 lethal: 6.5; Mtb hypoxia inh: 4; Mtb hypoxia inh growth: 1
39. Nc1cccc(Oc2ccc([N+](=O)[O-])cc2)c1
  Bead autofluor: 4464; Sa ugtP lethal: 8; BJeLR lethal: -6; PrP UTR inh: -27; Sa RN4220 lethal: -2.8; Mtb hypoxia inh: 2; Mtb hypoxia inh growth: 8

(further entries)
41. Cn1c(SCC(=O)Nc2cc([N+](=O)[O-])ccc2F)nnc1C(F)(F)F
42. Cc1ccc(CCNC(=O)c2nn(C)c3c2CS(=O)(=O)c2ccccc2-3)cc1
43. CCCc1[nH]c2ccc(C#N)cc2c1CCC
44. COc1ccc(NC(=O)CSc2nncn2C)cc1
45. O=C(O)c1ccc(C(=O)O)c(C(=O)c2ccccc2)c1
46. CCCCC(=O)Nc1cccc(NC(=O)c2cccc([N+](=O)[O-])c2)c1
47. CCCCNC(=O)c1cnc2n(c1=O)CCS2
48. COc1ccc(CCN(C)C(=O)c2cc(=O)c3ccccc3o2)cc1OC

assay / compound,41,42,43,44,45,46,47,48
Bead autofluor,2591,4432,3310,3350,17146*,2333,4020,5990
Sa ugtP lethal,0,3,.,10,8,-6,2,15
BJeLR lethal,3,1,0,6,8,0,-1,-3
PrP UTR inh,-10,-8,-17,-9,-4,-27,-18,-23
Sa RN4220 lethal,2.3,3.0,.,5.5,4.3,5.8,7.7,4.4
Mtb hypoxia inh,6,-2,.,3,1,12,.,8
Mtb hypoxia inh growth,5,0,.,7,0,3,.,-4

49. COc1ccc(C(=O)C2CCCN(C3CSCCSC3)C2)cc1OC (configuration not stated)
50. O=C(COC(=O)c1cnccn1)NCCc1ccc(Cl)cc1
51. c1ccc2c(c1)Nc1ccccc1S2
52. CC(C)c1ccc(OCc2ccc(C(=O)NN3CCN(C)CC3)o2)cc1
53. Cc1cccc(Nc2nnc(SCC(=O)N(C)C3CCS(=O)(=O)C3)s2)c1C (configuration not stated)
54. CC(=O)NCCn1c(SCc2ccc(C)cc2C)nc2ccccc2c1=O
55. COC(=O)C1C[C@@]2(O)C(O)C(O)C(O)CC2N1Cc1ccc(C(F)(F)F)cc1 (some centres not stated)
56. CCOC(=O)C1CCCN(S(=O)(=O)CCNC(=O)c2ccc3c(c2)OCO3)C1 (configuration not stated)

assay / compound,49,50,51,52,53,54,55,56
Bead autofluor,4097,.,5533,2235,2491,23483*,.,5706
Sa ugtP lethal,2,1,-14,-9,5,-9,-1&-16,2
BJeLR lethal,-8,.,2,2,9,9,.,-8
PrP UTR inh,-16,-1,-14,-72,8,-25,.,-8
Sa RN4220 lethal,-0.2,2.3,4.0,3.4,3.8,9.6,7.6&-1.9,1.6
Mtb hypoxia inh,-10,4,11,7,-6,10,10&5,14
Mtb hypoxia inh growth,-10,3,8,1,-7,5,5&0,0

57. CC(C)(C)OC(=O)N[C@@H](COCc1ccccc1)C(=O)N[C@@H](CO)[C@H](O)[C@@H]1C[C@@H]1C(=O)N1CCCC1
58. O=C(Cn1nnc(-c2ccccc2)n1)N1CCN(S(=O)(=O)c2ccc(Cl)cc2)CC1
59. CC(C)CN(C(=O)COC(=O)C1=COCCO1)c1c(N)n(Cc2ccccc2)c(=O)[nH]c1=O
60. O=C(NCc1ccncc1)c1cc2ccccc2nc1Cl
61. Cc1ccc(S(=O)(=O)c2cc3c(=O)n4ccccc4nc3n(C3CCCC3)c2=N)cc1
62. Cc1ccc(S(=O)(=O)N(CC(=O)N2CCC(C(N)=O)CC2)c2cccc(C(F)(F)F)c2)cc1
63. COc1ccc(C)cc1NC(=O)CSc1ccc(-c2sc(C)nc2C)nn1
64. Cc1ccc(NC(=O)CCc2ccc(S(=O)(=O)N3CCOCC3)cc2)c(O)c1

assay / compound,57,58,59,60,61,62,63,64
Bead autofluor,3031,3652,4994,3611,3268,2911,4533,3659
Sa ugtP lethal,.,13,4,1,-13,-3,5,5
BJeLR lethal,2,1,-3,-2,7,-1,-1,.
PrP UTR inh,-7,-14,-11,-12,16,-13,-7,-9
Sa RN4220 lethal,.,2.4,1.5,3.8,6.8,4.8,5.7,3.9
Mtb hypoxia inh,.,11,3,2,-5,3,-2,15
Mtb hypoxia inh growth,.,6,8,-7,-4,11,-6,7

Assay outcomes from PubChem BioAssay.
